hNpr1 antagonist – blocks ANP-stimulated signaling of human Npr1 receptor. Potency, µM (series often up to 46.3 µM), for the others: at the highest dose activity change, negative = inhibition, most hits filed as inhibitors. P16066. 1.6% of 76,000 active. HEK293 hNpr1 GloSensor cGMP, ANP-stimulated luminescence; active = well fitted inhibition curve with a large enough effect; inconclusive = small, poorly fitted or top-dose-only effect; inactive = no such curve, though single readings can be large or run the other way;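 note: nearly all actives have a fitted effect of over 60% in size; nearly all hits also lower the signal before the agonist is added; a reference antagonist and vehicle were the controls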
Target sequence (P16066 whole entry, looked up): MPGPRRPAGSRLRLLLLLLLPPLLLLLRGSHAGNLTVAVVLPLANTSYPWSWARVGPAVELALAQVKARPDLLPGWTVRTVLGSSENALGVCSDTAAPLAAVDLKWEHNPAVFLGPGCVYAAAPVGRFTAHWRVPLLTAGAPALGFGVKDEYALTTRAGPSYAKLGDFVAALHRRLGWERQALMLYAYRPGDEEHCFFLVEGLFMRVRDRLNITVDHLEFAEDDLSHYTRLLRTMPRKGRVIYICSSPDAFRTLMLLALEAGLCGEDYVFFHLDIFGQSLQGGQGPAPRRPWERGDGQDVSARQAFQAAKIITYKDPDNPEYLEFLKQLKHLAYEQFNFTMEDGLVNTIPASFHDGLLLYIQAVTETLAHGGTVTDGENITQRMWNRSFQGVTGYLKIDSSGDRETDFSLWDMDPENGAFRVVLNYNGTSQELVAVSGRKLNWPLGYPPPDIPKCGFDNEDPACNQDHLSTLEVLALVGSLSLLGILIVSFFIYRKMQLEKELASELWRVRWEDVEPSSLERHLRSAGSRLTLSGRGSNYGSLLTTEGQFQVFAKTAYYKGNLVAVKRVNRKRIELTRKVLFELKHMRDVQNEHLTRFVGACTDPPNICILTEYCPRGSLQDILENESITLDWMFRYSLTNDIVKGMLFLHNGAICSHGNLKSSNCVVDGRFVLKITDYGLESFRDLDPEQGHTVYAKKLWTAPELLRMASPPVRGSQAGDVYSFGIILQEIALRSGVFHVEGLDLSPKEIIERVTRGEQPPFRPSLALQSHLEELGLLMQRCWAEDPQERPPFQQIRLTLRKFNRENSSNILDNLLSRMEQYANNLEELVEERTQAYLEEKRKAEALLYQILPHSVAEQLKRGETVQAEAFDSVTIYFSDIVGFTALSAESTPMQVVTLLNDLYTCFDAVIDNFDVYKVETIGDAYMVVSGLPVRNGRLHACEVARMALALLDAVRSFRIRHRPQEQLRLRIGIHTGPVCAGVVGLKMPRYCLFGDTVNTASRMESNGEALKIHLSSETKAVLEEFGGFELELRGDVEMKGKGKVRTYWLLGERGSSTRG
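Compound pre-incubated 30 min at room temperature on GloSensor-loaded HEK293 cells stably carrying hNpr1 and the pGS-40F cGMP biosensor. Stimulation uses hNppA at 0.1 nM final; luminescence is taken at baseline and 20 min post-agonist.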
* marks the source's active call; other numbers are inactive results; ? = inconclusive; [ ] = remark or other dose. % is set by controls: 0 for no effect and ±100 for the full control effect; potency is the fitted concentration of half-maximal effect. Not all compounds are listed; the hit share may differ from the screen's.

SMILES	hNpr1 antagonist
COCCNC(=O)[C@@H]1C[C@H](Oc2cccnc2)CN1C(=O)COc1ccccc1	3.2%
CS(=O)(=O)N1CCCN(C(=O)C2CC2)c2ccccc21	2.3%
CCN1CCN(CCN2CC3(CCN(C(=O)[C@H](C)NC)CC3)OC2=O)CC1	0.0%
CN(C)c1ccc(C(=O)N2CCC3(CC2)NC(=O)N(c2cccc(F)c2)N3)cc1	0.0%
Cn1cnc(C(=O)NCC(=O)N2CCCCCNC(=O)CC2c2ccccc2)c1 (stereo unspecified)	0.2%
CNC(=O)c1cccc(-c2ccccc2COc2ccc(CCOC)cc2)n1	-23.0%
COc1ccc(CN2CCOC[C@H]2c2ncc(C(C)(C)C)[nH]2)cc1	2.6%[70.6 µM]
Cc1cnc(C(=O)N2CCCCCC2CN2CCCC2)cn1 (stereo unspecified)	-2.7%
Cc1ccc(CN2CCc3nc(N4CCOCC4)[nH]c(=O)c3CC2)cc1C	2.1%
COCCC1(NC(=O)C2CC2)CCN(C(=O)C2CC2)CC1	4.7%
Cc1cccc(OCCc2noc(C3CCN(C(=O)NCc4ccccc4)C3)n2)c1 (stereo unspecified)	-0.9%
COc1ccc(-c2ccccc2)cc1N1C(=O)[C@@H]2C[C@H]1CN2C(=O)[C@H](N)C(C)C	-1.7%
C=CCN(Cc1ccccc1OC)C(=O)c1cnc2ccccn12	5.9%
O=C1OCC2(CCN([S+](=O)([O-])c3ccccc3F)C2)N1CCN1CCOCC1 (stereo unspecified)	12.6%[70.6 µM]
O=C(C1CCCC1)N1CCOC[C@H](Oc2ccc(C(F)(F)F)cn2)C1	-4.8%[70.6 µM]
CCOc1ccc(C(=O)N2[C@@H]3CC[C@H]2CC(NC(=O)c2cnc(C)cn2)C3)cc1 (stereo partly specified)	5.4%
CC1(C)C(=O)N(CCOc2ccccc2)[C@H]2CN(CC3CCOC3)C[C@H]2[S+]1(=O)[O-] (stereo partly specified)	2.7%[70.6 µM]
CCN(CC)C(=O)N1CCCOCCNC(=O)[C@@H]2CCC[C@@H]21	-1.6%
CC(=O)NC1CCN(Cc2cn(-c3ccc(C)cc3)nc2-c2cccc(C)c2)C1 (stereo unspecified)	-0.7%
CCc1cc(=O)n(CC(=O)Nc2cccc(C(C)C)c2)c(N2CCOCC2)n1	?
Fc1cccc(CN2CCC(Cc3nc(-c4ccncc4)n[nH]3)C2)c1 (stereo unspecified)	-7.1%
COc1ncccc1-c1cnc2[nH]cc(CC(N)=O)c2c1	-3.5%[70.6 µM]
CN(C)S(=O)(=O)N1CCn2nc(CN3CCCOCC3)cc2C1	-0.3%
O=C1CO[C@H]2CCN(Cc3ccc(O)cc3)CC[C@@H]2N1c1ccccc1	-5.3%[70.6 µM]
O=C(Nc1ccccc1)N1CCc2c(c3ccccc3n2CC2CC2)C1	-7.4%
O=C(NCCCc1ccccc1)c1cccc2c1CCN2C(=O)C1CC1	-12.5%
C=CCOC(=O)C1=C(C)N(Cc2ccc(F)c(F)c2)C(=O)CC1c1ccccc1Cl (stereo unspecified)	-10.6%
COc1ccc2[nH]c3c(c2c1)CCNC31CCN(C(=O)c2ccc(OC)nc2)CC1	7.2%
CCc1cnc(N)nc1N1CCC(N2CCOCC2)CC1	1.3%
Cc1cccc(-n2nc(-c3c(C)nc4scc(CC(=O)NCCc5ccccc5)n4c3=O)cc2C)c1	-16.7%
COCCN1CC(C(=O)N2CCC(O)(c3ccc(F)cc3)CC2)CCC1=O (stereo unspecified)	3.0%
CCc1ccc(CNC(=O)Cn2nc(C)c3sc(C(C)C)nc3c2=O)cc1	6.7%
COc1ccc(CN2C(=O)COC[C@H]2C(=O)Nc2ccc(C(C)C)cc2)c(OC)c1	-2.2%
COCCN1C(=O)[C@H]2CN(Cc3ccccc3C)C[C@H]2C1=O	-0.7%
COC[C@H]1C[C@@H](NCc2nccs2)[C@H](O)[C@@H]1O	-1.2%[70.6 µM]
COc1ccc(-c2ccc3nnc(CNC(=O)c4cccc(OC)c4)n3n2)cc1	-2.1%
COCCN1C(=O)c2cccn2CC1CNC(=O)c1ccc(F)cc1 (stereo unspecified)	0.3%
Cc1ccc(C)c(Cn2c(-c3ccc(F)cc3)nc(C)c(CCO)c2=O)c1	4.1%
CCNC(=O)N1CC(C(=O)NCc2cccc(F)c2)CC(c2ccc(F)c(C)c2)C1 (stereo unspecified)	-1.7%
CN1CCC(Cc2ccc(C(=O)O)cc2)CC1	-2.5%
COc1ccc(-c2cc3nc4c(c(=O)n3[nH]2)CN(C(=O)CCCc2nc3ccccc3s2)CC4)cc1	-1.3%
O=C(c1ccc(F)cc1)N1CC[C@H](c2nc3ccc(F)cc3[nH]2)C1	-0.9%[70.6 µM]
COc1cccc(C(=O)Nc2cccc(-c3nnc4n3CCCC4)c2)c1	-4.6%
O=C(CN1C(=O)NC(c2ccc(Cl)cc2)C2=C1COC2=O)Nc1cccc(Br)c1 (stereo unspecified)	?
Cc1ccc(-c2nc(CNC(=O)C3CCNC3)[nH]c2-c2ccccn2)cc1 (stereo unspecified)	1.4%
O=C(NCC1CC1)c1cccc(OC2CN(CC3CC=CCC3)C2)c1 (stereo unspecified)	11.6%
COCCNC(=O)[C@@H]1C[C@@H](O)CN1C1CCN(C(=O)Cc2cccc(OC)c2)CC1	7.0%
CCN(Cc1ccccc1)C(=O)c1cc(-c2ccncc2)cn1Cc1ccc(C)cc1	-13.2%
CCC(=O)N1CCc2c(sc3ncnc(N)c23)C1	-9.3%
NC(=O)[C@@H](Cc1c[nH]c2ccccc12)NC(=O)[C@@H]1[C@@H](NC(=O)NC2CCCCC2)CCN1C(=O)c1cnccn1	7.9%
COc1cc(=O)n2c(c1C(=O)N1CCN(c3ccc(C)cc3)CC1)CCCC2	-1.2%
CCc1noc(-c2nc(-c3ccccc3OC)no2)n1	-1.6%
COCC(=O)N[C@@H]1CN(Cc2ccc3cc[nH]c3c2)CC[C@@H]1CO	0.3%
Cc1ccc(CNC(=O)CC2CCOCC2)cc1	2.6%
COc1ccccc1CNC(=O)c1ccc(N2CC3CC(C2)[C@H]2CCCC(=O)N2C3)nc1 (stereo partly specified)	2.6%
CS(=O)(=O)N1CCC(OC2CCN(C(=O)NCc3ccccc3)CC2)CC1	-2.9%
Cc1ccc(CNC(=O)Cn2c(N3CCCCC3)nc(C)c(C)c2=O)cc1	-0.8%
Fc1ccc(-c2cccc(CN3CCOCC3)c2)c(Cl)c1	4.8%
CC(C)(CN1CCC(Cc2cccc(C(=O)O)c2)C1)N1CCOCC1 (stereo unspecified)	-17.1%
CCn1cc(CN2CCCC23CCN(c2ccc(C(F)(F)F)cn2)CC3)cc1C#N	-22.9%

Already shown: an excerpt of the list.
SMILES	hNpr1 antagonist
O=C(CN1C(=O)NC(c2ccc(Cl)cc2)C2=C1COC2=O)Nc1cccc(Br)c1 (stereo unspecified)	?
Cc1ccc(-c2nc(CNC(=O)C3CCNC3)[nH]c2-c2ccccn2)cc1 (stereo unspecified)	1.4%
O=C(NCC1CC1)c1cccc(OC2CN(CC3CC=CCC3)C2)c1 (stereo unspecified)	11.6%
COCCNC(=O)[C@@H]1C[C@@H](O)CN1C1CCN(C(=O)Cc2cccc(OC)c2)CC1	7.0%
CCN(Cc1ccccc1)C(=O)c1cc(-c2ccncc2)cn1Cc1ccc(C)cc1	-13.2%
CCC(=O)N1CCc2c(sc3ncnc(N)c23)C1	-9.3%
NC(=O)[C@@H](Cc1c[nH]c2ccccc12)NC(=O)[C@@H]1[C@@H](NC(=O)NC2CCCCC2)CCN1C(=O)c1cnccn1	7.9%
COc1cc(=O)n2c(c1C(=O)N1CCN(c3ccc(C)cc3)CC1)CCCC2	-1.2%
CCc1noc(-c2nc(-c3ccccc3OC)no2)n1	-1.6%
COCC(=O)N[C@@H]1CN(Cc2ccc3cc[nH]c3c2)CC[C@@H]1CO	0.3%
Cc1ccc(CNC(=O)CC2CCOCC2)cc1	2.6%
COc1ccccc1CNC(=O)c1ccc(N2CC3CC(C2)[C@H]2CCCC(=O)N2C3)nc1 (stereo partly specified)	2.6%
CS(=O)(=O)N1CCC(OC2CCN(C(=O)NCc3ccccc3)CC2)CC1	-2.9%
Cc1ccc(CNC(=O)Cn2c(N3CCCCC3)nc(C)c(C)c2=O)cc1	-0.8%

Continued.
SMILES	hNpr1 antagonist
CCNc1ncc(C(=O)N[C@H](c2cccs2)C2CC(O)C2)cn1 (stereo partly specified)	1.1%
CC(=O)Nc1ccc(-c2ccc(=O)n3c2[C@@H]2C[C@@H](CN(C(=O)NC4CCCCC4)C2)C3)cc1	1.4%
O=C1COCCN1c1cc(-c2cccc(F)c2)cn2cncc12	-2.2%[70.6 µM]
O=C1CCC2(CCCO2)CCN1Cc1ccccc1C(F)(F)F (stereo unspecified)	4.7%
CC(C)Oc1ccc2c(NC(=O)CCn3cnnn3)nn(CC(F)(F)F)c2c1	8.0%
CC(C)(C)c1ccc(-c2noc(-c3ncn4c3COC(c3ccc(F)cc3)C4)n2)cc1 (stereo unspecified)	-3.5%
CC(C)NC(=O)N[C@H]1C[C@@H](Cc2cc(CCO)on2)C1(C)C	3.2%[70.6 µM]
O=C(CCCc1ccccc1)Nc1ccc(OC2CCNCC2)nc1	2.6%
COCCCN1C(=O)CC[C@H]2CN(C(=O)Cn3cccnc3=O)CC[C@H]21	0.2%
O[C@@H]1C[C@@H](c2nc(-c3cnccn3)no2)N(Cc2cccs2)C1	1.2%[70.6 µM]
O=C(Nc1cccc(-c2nnc3n2CCCC3)c1)C1CC1	5.4%
COc1ccc(NC(=O)c2ccc3c(c2)OCCN(C2CCC2)C3)c(F)c1	-2.8%[70.6 µM]
COCc1nc(-c2ccc(OC3CN(C(=O)C(C)Oc4ccccc4)C3)cc2)no1 (stereo unspecified)	?
CC(C)c1noc(-c2cn(C3CCN(C(=O)c4nccc5ccccc45)C3)nn2)n1 (stereo unspecified)	-1.2%
O=C(CCn1ccn2nc3c(c2c1=O)CCCC3)N1CCN(c2ccc(F)cc2)CC1	-15.1%
COC(=O)c1cccc(C(=O)NC2CCCN(CCCc3ccccc3)C2)c1 (stereo unspecified)	3.8%
O=C1NC2(CCCN(Cc3ccsc3)C2)COc2ccccc21 (stereo unspecified)	-21.2%[70.6 µM]
COc1ccc(-c2cc(N3CCC(NC(=O)Cc4c(F)cccc4Cl)CC3)n[nH]2)cc1	-0.5%
O=C(Nc1cccc(F)c1)N[C@@H]1C=C(C(=O)N[C@H]2CCCNC2=O)C[C@@H](O)[C@@H]1O	-1.1%[70.6 µM]
OC1(c2csc(CN3CCc4ccccc4C3)n2)CCN(CC2CCCCC2)CC1	5.9%[70.6 µM]
CC(C)Oc1cccc(-c2nnc(CCC(=O)NC(C)c3ccccc3)c(=O)[nH]2)c1 (stereo unspecified)	-0.1%
O=C(c1ccccn1)N1CCC2(CC1)CC(N(Cc1ccc(F)cc1)C1CC1)CCO2 (stereo unspecified)	2.0%
COc1ccc(C(=O)N2CCCC(c3nc(C4CCOCC4)no3)C2)cc1OC (stereo unspecified)	3.1%
Cc1ccc(C(=O)N2CCC(N3C(=O)CCC3C(=O)NC(C)C)CC2)c(C)c1 (stereo unspecified)	-12.9%
CC1=C[C@@H](CC#N)[C@H](C(C)C)C[C@H]1CC(=O)N1CCN(CCO)CC1	-0.8%[70.6 µM]
COCCNC(=O)N1CCC(C2CCNC2)CC1 (stereo unspecified)	8.9%
O=C1CC2(CCN(c3cncc(C(=O)N4CCCCC4)n3)C2)C(=O)N1 (stereo unspecified)	3.2%
O=C(Nc1ccc([C@H]2OCC(=O)N(Cc3ccncc3)[C@@H]2CO)cc1)c1ccc(C(F)(F)F)cc1	?
Cc1ccc(-c2cnc([C@@H]3COCCN3Cc3ccncc3)[nH]2)cc1	4.0%[70.6 µM]
COc1ccc(-c2cc3c(=O)n(CCNC(=O)c4ccsc4)ccn3n2)cc1	-23.6%
CNC(=O)C1CCN(C(=O)c2cc(COc3ccccc3OC)[nH]n2)C1 (stereo unspecified)	10.0%
CCc1ccc(NC(=O)N2CCCC(c3noc(COc4ccccc4F)n3)C2)cc1 (stereo unspecified)	?
Cn1ncc(N2CCC(C(=O)N3CCC(C(N)=O)(N4CCCCC4)CC3)C2)cc1=O (stereo unspecified)	13.1%
CCN(CC)Cc1cnc2c(C(=O)NC(C)c3ccccc3)cnn2c1 (stereo unspecified)	-1.1%
Cc1[nH]ncc1CNC(=O)C1CCCN(Cc2ccncc2)CCC(=O)NCC1 (stereo unspecified)	-5.4%
COc1ccc(-c2noc(-c3cccn3CC(=O)Nc3ccccc3C)n2)cc1F	2.1%
CC1(Cc2ccc3c(c2)OCO3)CCCN(C(=O)c2cncc(Cl)c2)C1 (stereo unspecified)	-4.7%
O=C([C@@H]1C[C@H](Oc2cccnc2)CN1C(=O)c1ccco1)N1CCCC1	0.9%
Cc1nn(CC(=O)NCc2cccnc2)c(=O)c2nc(-c3ccccc3)sc12	3.9%
CC(C)CCNC[C@H]1O[C@H](Cc2cc(-c3ccc(F)cc3)on2)CC[C@@H]1O	?
CCn1cc(CN(C)S(=O)(=O)c2ccc(C(=O)NC3CC3)cc2)cn1	0.4%
CCCN1CCc2[nH]cnc2C12CCN(C(=O)c1cnn3ccccc13)CC2	0.1%
Cc1ccc(-c2cc(N3CCCN(C(=O)c4ccc5c(c4)OCO5)CC3)n[nH]2)cc1C	-16.3%
O=C(c1ccc2sccc2c1)N1CCN(Cc2ccc3c(c2)OCO3)CC1	?
CC(C)Oc1ccc2c(NC(=O)C3CCOC3)nn(Cc3ccccc3)c2c1 (stereo unspecified)	-0.6%
COc1ccc(Nc2cnc3ccc(-c4ccc(F)cc4)nn23)cc1	-2.2%[70.6 µM]
Cc1cc(C(=O)N2CCCC(c3nn[nH]n3)C2)nn1C (stereo unspecified)	2.4%

Two compounds drawn at random from the list so far:
SMILES	hNpr1 antagonist
CCc1ccc(NC(=O)N2CCCC(c3noc(COc4ccccc4F)n3)C2)cc1 (stereo unspecified)	?
O=C([C@@H]1C[C@H](Oc2cccnc2)CN1C(=O)c1ccco1)N1CCCC1	0.9%

Assay outcomes deposited in PubChem BioAssay by National Center for Advancing Translational Sciences (NCATS).
